Compound activity: PubChem, National Center for Advancing Translational Sciences (NCATS)
2A firefly = lowers the firefly signal of an FMDV 2A StopGo reporter; HEK cells with a luciferase reporter of 2A StopGo recoding; Potency, µM (series often up to 57.5 µM), for inactives: top-dose signal change, negative = less light; hit rate 0.23% among 120,000; AID 1745856; active = well fitted falling curve with a large enough effect; inconclusive = small, poorly fitted or top-dose-only effect; inactive = no such curve, though single readings can be large or run the other way; note: nearly all actives have a fitted effect of over 60% in size; overnight with compound
StopGo RLuc = FMDV 2A StopGo reporter, Renilla signal; HEK cells with a luciferase reporter of 2A StopGo recoding; Potency, µM (doses to about 57.5 µM), for inactives: at the top dose signal change, negative = less light; hit rate 0.32% among 120,000; active means well fitted falling curve with a large enough effect; inconclusive means small, poorly fitted or top-dose-only effect; inactive means no such curve, though single readings can be large or run the other way; note: nearly all actives have a fitted effect of over 55% in size; overnight with compound
* marks the source's active call; other numbers are inactive results; ? = inconclusive; [ ] = remark or other dose. % is set by controls: 0 for no effect and ±100 for the full control effect; potency is the fitted concentration of half-maximal effect.

canonical_smiles,2A firefly,StopGo RLuc
CCCc1ccc(NC(=O)C2CCCN(c3cnccn3)C2)cc1 (centres undefined),35%[activator],44%[activator]
Cc1ccc(-c2cc(C(=O)N3CCCCCC3)c3ccccc3n2)s1,16%,158%[activator]
Cc1cc2c(s1)CCc1cc(C(=O)NC3CCCC3)sc1-2,105%[activator],33%[activator]
O=c1oc(-c2ccccc2)nn1CC(O)COc1ccc(F)cc1 (centres undefined),-12%,0%
COc1ccc(C(=O)/C=C/c2ccc(OC)c(OC)c2)c(OC(=O)c2cccs2)c1,35%[activator],?
Cn1nc(C(F)(F)F)c(Cl)c1C(=O)Nc1sc2c(c1C#N)CCCC2,?,?
C=C(C)CN1CCN(C(C(=O)O)c2c(-c3ccccc3)[nH]c3ccccc23)CC1 (centres undefined),13%,-11%
CC(C)OC(=O)c1c(NC(=O)c2cccc(C(F)(F)F)c2)sc2c1CCCC2,0%,-7%
O=S(=O)(Nc1ccc(-c2ccc(N3CCCCC3)nn2)cc1)c1ccc(OC(F)(F)F)cc1,39%[activator],66%[activator]
C#CCN(C)CCCOc1ccc(Cl)cc1Cl,25%,-8%
O=C(Nc1ccc2nc(N3CCOCC3)sc2c1)c1n[nH]c(=O)c2ccccc12,100%[activator],-9%
CCN(CC)c1nc2ccccc2nc1C(=O)Nc1cccc(OC)c1,14%,25%
CCc1ccc(C(=O)CSc2n[nH]c(C(C)C)n2)cc1,23%,9%
CC(C(=O)Nc1ccccc1Sc1ccccc1)N(c1ccccc1)S(C)(=O)=O (centres undefined),-9%,49%[activator]
Cc1ccc(C(C)C)cc1OCC(=O)NC1=NCCS1,-1%,-11%
O=C(/C=C/c1ccco1)Nc1ccc2oc(-c3cccc(F)c3)nc2c1,108%[activator],4%
COc1cccc(NC(=O)Cn2c(-c3nonc3N)nc3ccccc32)c1,15%,-10%
COc1cc(NC(=O)Cn2c(=O)n(Cc3ccco3)c(=O)c3oc4ccccc4c32)cc(OC)c1,-8%,5%
O=C(Oc1ccccc1)C1C2CCCC1C2c1ccccc1 (centres undefined),-4%,5%
Cc1c(C2=CCN(S(=O)(=O)c3ccc(CC(C)C)cc3)CC2)c2ccccc2n1CC(=O)N1CCCC1,?,21%
Cc1cc(NC(=O)C(=O)c2c[nH]c3ccccc23)no1,0%,-8%
Cc1nn(CC(=O)N2CCN(c3cccc(C(F)(F)F)c3)CC2)c(=O)c2cccn12,-26%,-13%
COCCn1c(=O)[nH]c(=O)c2c3c(cnc21)C(=O)CC(c1ccc(F)cc1)C3 (centres undefined),8%,6%
Cc1ccc(N2C(=O)N(Cc3ncc(-c4ccccc4)o3)C(=O)C2C)cc1 (centres undefined),4%,-13%
Cc1c(NC(=O)c2n[nH]c(=O)c3ccccc23)c(=O)n(-c2ccccc2)n1C,3%,-9%
Cc1oc(-c2ccccc2)nc1C(=O)NCC(c1ccccc1)N(C)C (centres undefined),0%,-19%
O=C(COC(=O)c1ccc2ccccc2n1)Nc1ccc2ccccc2c1,67%[activator],-8%
CCCc1ccc(-c2ccc(C3CCC(CC)CC3)cc2)nc1 (centres undefined),17%,4%
Fc1ccc(Nc2nc3ccccc3n3cnnc23)c(F)c1,20%,14%
O=C(Nc1nnc(Cc2ccccc2)s1)c1cc(=O)c2ccccc2o1,16%,1%

Retrieved by compound from the list above, 5 records:
canonical_smiles,2A firefly,StopGo RLuc
Cc1oc(-c2ccccc2)nc1C(=O)NCC(c1ccccc1)N(C)C (centres undefined),0%,-19%
CC(C(=O)Nc1ccccc1Sc1ccccc1)N(c1ccccc1)S(C)(=O)=O (centres undefined),-9%,49%[activator]
COc1ccc(C(=O)/C=C/c2ccc(OC)c(OC)c2)c(OC(=O)c2cccs2)c1,35%[activator],?
Cc1ccc(C(C)C)cc1OCC(=O)NC1=NCCS1,-1%,-11%
Cc1c(C2=CCN(S(=O)(=O)c3ccc(CC(C)C)cc3)CC2)c2ccccc2n1CC(=O)N1CCCC1,?,21%

Other structures.
canonical_smiles,2A firefly,StopGo RLuc
Cc1ccc(CN(Cc2cccn2-c2nnc(N3CCCC3=O)s2)C(=O)Nc2ccc(F)cc2)cc1,30%,-5%
O=C(Cn1cc(S(=O)(=O)Cc2ccccc2F)c2ccccc21)NCc1ccccc1Cl,1%,22%
CNC(=O)NC(=O)CNC(c1ccccc1)c1ccccc1,34%[activator],48%[activator]
Cc1cc(N(C)C)nc(Nc2ccc(NC(=O)Nc3ccc(F)cc3)cc2)n1,23%,-7%
CCn1cc(C(=O)N(C)c2ccc(C)c(C)c2)c2cc(OC)c(OC)cc2c1=O,-6%,-5%
Cc1cc2cc(NS(=O)(=O)c3ccc(F)c(F)c3F)ccc2[nH]1,18%,76%[activator]
CCN(Cc1ccccc1)C(=O)Cn1ncc2c(=O)oc3ccc(C)cc3c21,0%,-11%
COc1ccc(CNC(=O)c2ccc3ccccc3c2)cc1,142%[activator],87%[activator]
Cc1nc2cc(NC(C)C(=O)Nc3c(F)cccc3F)ccc2o1 (centres undefined),-2%,-3%
CN(CC(=O)N1CCc2ccccc2C1)S(=O)(=O)c1ccc(Cl)cc1,29%,44%[activator]
O=S(=O)(NCCCn1ccc2ccccc21)c1cc(F)cc(F)c1,-7%,51%[activator]
O=C(NCc1ccc(N2CCCC2)nc1)c1ccc(O)c(Cl)c1,5%,-12%
O=C(NCCCN1CCN(c2ccc(F)cc2)CC1)c1cnn(-c2ccc(F)cc2)c1-n1cccc1,5%,-8%
CC(=O)c1ccc(NC(=S)NCCc2ccc(Cl)cc2)cc1,172%[activator],30%
Cc1nn(CN2CCN(S(=O)(=O)c3ccc(C#N)cc3)CC2)c(=O)c2ccccc12,-1%,-6%
Cc1c(C(=O)OC2CCCCCC2)[nH]c2c1C(=O)CC(c1ccccc1)C2 (centres undefined),-12%,-9%
O=C1Cc2cc(S(=O)(=O)N3CCN(c4cccc(Cl)c4)CC3)ccc2N1,-18%,-13%
Cc1c(C(=O)Nc2cnc3ccccc3c2)cccc1[N+](=O)[O-],0%,-3%
Cc1c(CC(=O)O)c(=O)oc2cc(OCc3ccccc3Cl)ccc12,64%[activator],1%
Cc1ccc(NC(=O)C(C)SC(c2ccc(F)cc2)c2ccc(F)cc2)c(C)c1 (centres undefined),-13%,0%
COc1ccc(NC(=O)c2cccn2-c2nnc(N3CCCCC3)s2)cc1Cl,22%,45%[activator]
Fc1ccc(OCc2nnc(-c3ccc(Cl)cc3)o2)cc1,169%[activator],29%
O=C(NCc1ccc2c(c1)OCO2)c1cccc(S(=O)(=O)N2CCc3ccccc3C2)c1,-13%,93%[activator]
COc1ccc(N2CCN(c3oc(/C=C/c4cc(OC)c(OC)c(OC)c4)nc3C#N)CC2)cc1,-8%,-8%
CN(C)CCNC(=O)C(=O)NCC(c1ccc2c(c1)OCO2)N1CCOCC1 (centres undefined),-14%,-14%
COc1ccc(C2c3c(n(C)c4ccccc34)C(=O)N2CC(=O)Nc2cccc(Cl)c2)cc1 (centres undefined),-24%,-16%
Cc1cccc(Cc2c(C)nc3nc(SCc4ccccc4F)nn3c2C)c1,11%,10%
O=C(CSc1nccc(-c2ccc(F)cc2)n1)Nc1ccc(OC(F)F)cc1,0%,3%
O=C(NCCc1csc2nc(-c3ccc(F)cc3)nn12)c1cccc(C(F)(F)F)c1,-4%,2%
COc1cccc(CNC(=O)c2nc(-c3ccccc3)oc2C)c1,31%[activator],11%
COc1ccc(-c2ccc(CCC(=O)O)n2-c2cc(Cl)ccc2O)cc1,95%[activator],4%
CC(Cn1cccn1)NC(=O)c1cc(Cl)c2c(c1)OCCO2 (centres undefined),132%[activator],7%
Nc1nonc1C(=O)NCCNCc1ccc(Cl)c(Cl)c1,-10%,-9%
COc1ccc(N2C(=O)c3ccccc3NC2c2ccc(OC)c(CN3CCOCC3)c2)cc1 (centres undefined),135%[activator],5%
Cc1csc2nc(COc3ccc(-c4ccccc4)cc3Cl)cc(=O)n12,21%,-5%
COc1ccc(-c2nc3ccccc3s2)cc1NC(=O)c1cccc(F)c1,19%,-10%
Cc1cc(C)c(NC(=O)c2csc3c2CCCC3)c(C)c1,24%,13%
CSc1ccc(/C=N/Nc2ccc(Cl)cc2)cc1,15%,9%
O=S(=O)(Nc1nc2ccccc2nc1NCc1ccc2c(c1)OCO2)c1cccc(Cl)c1,11%,8%
CCOc1cc2[nH]c(=O)n(CCCC(=O)N3CCN(c4cccc(Cl)c4)CC3)c(=O)c2cc1OCC,-13%,-3%
COc1cccc(OCc2nc3ccc(OC)cc3[nH]2)c1,177%[activator],1%
COc1ccc(Oc2cc(CNS(=O)(=O)N3CCOCC3)ccn2)cc1,21%,-6%
Cc1cc(-c2ccc(S(=O)(=O)Nc3ccc(Cl)cc3C)cc2)on1,?,17%
NNc1ncnc2ccc([N+](=O)[O-])cc12,7%,9%
CCOc1ccc2nc(N3CCCC(C(=O)Nc4ccc(CC)cc4)C3)sc2c1 (centres undefined),24%,4%
COc1ccc(NC(=O)CN2CCN(Cc3ccc(F)cc3)S2(=O)=O)cc1Cl,-16%,19%
CCS(=O)(=O)N1CCc2cc(C(=O)NCCc3ccccc3)ccc21,221%[activator],11%
CCc1ccc(OCc2nnc(SCc3cccc(C(F)(F)F)c3)n2CC(C)C)cc1,4%,1%[1.06 µM]
COc1cc(C(CC(=O)Nc2ccc(C)c(F)c2)N2Cc3ccccc3C2=O)cc(OC)c1OC (centres undefined),-2%,18%
Cc1ccccc1CS(=O)(=O)N1CCC(C(=O)NC23CC4CC(CC(C4)C2)C3)CC1,-8%,-12%
FC(F)(F)c1cccc(-c2csc(-c3ccncc3)n2)c1,168%[activator],10%
CCn1c(SCc2ccc(F)cc2Cl)nnc1-c1ccccn1,9%,44%[activator]
CC(=O)Nc1ccc(NC(=O)CN2C(=O)CC(c3ccco3)Sc3ccccc32)cc1 (centres undefined),14%,39%[activator]
CCn1nnnc1SCc1cc(=O)oc2cc(C)ccc12,108%[activator],19%
CC(=O)Nc1ccc(C)c(NC(=O)c2nc(-c3ccccc3)oc2C)c1,0%,4%
COc1ccc(OC)c(CCNC(=O)C(CCS(C)(=O)=O)N2Cc3ccccc3C2=O)c1 (centres undefined),-22%,-19%
Cc1ccccc1C(OCCN(C)C)c1ccccc1 (centres undefined),-24%[11.5 µM],-18%
O=C(NCc1ccc(F)cc1)c1nnc(Cc2cccc(F)c2)o1,15%,-10%
COC(=O)c1scc(-c2ccc(C)cc2)c1S(=O)(=O)Nc1cccc(C)c1,-4%,167%[activator]
Cc1ccc(C(C)NC(=O)Cn2cnc(C#N)n2)cc1C (centres undefined),-5%,-7%

Further compounds follow.
canonical_smiles,2A firefly,StopGo RLuc
Cc1cc(C)cc(C(=O)NCC(=O)N2CCCC2c2ccc(F)cc2)c1 (centres undefined),-12%,-2%
COc1cc(C)ccc1OC(=O)C(C)Oc1ccc(Cl)cc1Cl (centres undefined),-7%,-1%
COc1ccccc1NC(=O)c1nc2ccccc2nc1N1CCOCC1,4%,10%
Cc1ccc(-c2cnc(CCC(=O)Nc3ccc(F)cc3)o2)cc1C,-4%,-2%
CCOC(=O)/C(C#N)=C/c1ccc(Br)s1,-7%,-3%
COc1ccccc1C1CC(=O)Nc2c1sc(C(=O)O)c2-c1ccc(F)cc1 (centres undefined),0%,-10%
CC1(C)Cc2cccc(OCC(=O)OCC(=O)Nc3ccc(C(N)=O)cc3)c2O1,-5%,-6%
COC(=O)c1ccc(/C=C/C(=O)c2cccc(N3CCOCC3)c2)cc1,0%,8%
Cc1ccc2[nH]c(=O)c3cc(C(=O)N4CCN(c5ccccc5F)CC4)sc3c2c1,-1%,-8%
CC(=O)NCc1ccc(C(=O)CSc2ccc(NC(C)=O)cc2)cc1,9%,18%
CCOC(=O)c1c(S(=O)(=O)N2CCCC(C(=O)Nc3ncccc3C)C2)c(C)n(C)c1C (centres undefined),13%,36%[activator]
CN1CCC(N(Cc2cccs2)c2ccccc2)CC1,5%,-1%
CC(C)C(=O)NC1CC(=O)N(c2ccc3c(c2)OCCO3)C1 (centres undefined),6%,-14%
COc1ccc(CN2C/C(=C/c3ccccc3)N3C(=O)C[C@@H](c4ccc5ccccc5c4)N=C23)c(OC)c1,-8%,19%
O=C(NCC1CN(Cc2ccccc2)CCO1)C1CCCC1 (centres undefined),14%,34%[activator]
O=C(NCC(O)c1ccccc1)c1ccc(CNS(=O)(=O)c2ccccc2)cc1 (centres undefined),23%,23%
CCCN(C(=O)C(=O)Nc1ccc2nc3n(c(=O)c2c1)CCCCC3)c1ccc(OCC)cc1,-13%,26%
Cc1ccccc1NC(=O)CCn1nc(-c2ccc(Cl)cc2)c2ccccc2c1=O,-16%,-11%
CC(On1nnc2ccc(Cl)cc21)C(=O)Nc1ccc(F)cc1F (centres undefined),4%,2%

Compound profiles (already shown):
CN1CCC(N(Cc2cccs2)c2ccccc2)CC1 as listed: 2A firefly = 5%; StopGo RLuc = -1%
Cc1c(C(=O)OC2CCCCCC2)[nH]c2c1C(=O)CC(c1ccccc1)C2 (centres undefined) as listed: 2A firefly = -12%; StopGo RLuc = -9%

A portion of the library. The share of hits here may be higher or lower than overall.
